From PubChem BioAssay
Vif TR-FRET: inhibitors of Vif binding to APOBEC3G peptide, primary screen, biochemical, TR-FRET, GST-Vif 1-94, biotin-A3G peptide, dose response retest (AID 1117319); hit rate 0.57% among 260,000; one-dose inhibition, %; IC50 in µM for titrated hits; TR-FRET GST-Vif / biotin-A3G peptide binding; higher % means a stronger effect; test concentration not given here; strong numbers were not always called active; Virion infectivity factor (Human immunodeficiency virus type 1 group M subtype B (isolate …;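 active = above the screen mean plus three standard deviations and confirmed in dose response; inconclusive = results disagree or hit not tested in dose response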;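 also: Vif residues 1-94 fused to GST binding biotinylated APOBEC3G peptide 110-148; 0% = full assay without inhibitor and 100% = GST in place of GST-Vif; retest series ran down from 100 µM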
Bfl-1 A1 inh: caspase 3/7 activation in MEF A1-2A-BIM cells, primary screen, A1 inhibitor project, cell-based, luminescence, HTS. Caspase-Glo 3/7 luminescence, 3 h; percent of clofoctol response, vehicle zero. caspase activation, % (no concentration beside the values). hit rate 0.066% among 330,000. AID 2462, 2010;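 active = over half of replicate activation scores above 10%, or exactly half above 10 with the replicate mean above 10; inconclusive = replicate mean below 10 yet half the replicates above 10; inactive = over half of replicates below 10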;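 also: wells of about 30 µL received 50 nL stock; many hits fall short of the cut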
E coli growth: E. coli growth inhibition, primary screen, OD600. Escherichia coli growth, 23 h; hits give low values. AID 1053175, 2014. OD600 absorbance (test concentration not listed). hit rate 0.21% among 330,000;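 active = OD600 absorbance below the run mean of sample wells minus 3.6 SD, in any replicate, cut at about 0.56 in these data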;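 also: stock transfer was 300 nL into about 60 µL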
LANA-H2A inh: blockers of LANA interaction with H2A/H2B – biochemical, FP readout, HTS, primary screen; cell-free LANA-H2A/H2B peptide, fluorescence polarization; Protein LANA1 (Human herpesvirus 8 type P (isolate GK18)), Q9QR71; hit rate 0.6% among 320,000; inhibition, % (concentration not given with the values); in the data active = inhibition mostly above about 10%, no sharp cut-off; inactive = mostly below about 6.7%;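 also: stock transfer was 7.5 nL into about 10 µL; 0% = median of vehicle wells and 100% = median of positive control wells; one replicate is shown; the record names a cut of 25% in any replicate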
UCH37 inh: inhibitors of human UCH37 deubiquitinase, primary screen, biochemical, Ub-AMC cleavage, fluorescence | AID 588478, 2011 | hit rate 0.33% among 330,000 | inhibition, % (concentration not given with the values) | Ubiquitin carboxyl-terminal hydrolase isozyme L5 (Homo sapiens), Q9Y5K5 | purified proteasome/UCH37;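 active = mean of two replicates above 20%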;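 also: 0% = compound-free wells with enzyme and 100% = wells lacking proteasome; stock transfer was 100 nL into about 20 µL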
Target sequence (Q9Y5K5 whole entry, looked up): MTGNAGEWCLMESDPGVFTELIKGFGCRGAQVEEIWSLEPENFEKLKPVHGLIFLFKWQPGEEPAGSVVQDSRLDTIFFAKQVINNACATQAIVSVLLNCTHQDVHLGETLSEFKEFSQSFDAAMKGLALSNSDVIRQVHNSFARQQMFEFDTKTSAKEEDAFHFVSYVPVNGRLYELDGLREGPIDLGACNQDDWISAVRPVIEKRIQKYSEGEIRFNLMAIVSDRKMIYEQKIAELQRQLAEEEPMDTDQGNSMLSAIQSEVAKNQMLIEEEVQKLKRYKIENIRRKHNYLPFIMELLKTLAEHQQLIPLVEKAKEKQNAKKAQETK
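Schedule: 30 min plus 25 min, room temperature / Material: human UCH37 within purified proteasomes / Technique: AMC fluorescence intensity at 355/460 nm / Buffer or medium: pH 7.4 Tris-HCl (50 mM) with ovalbumin, ATP-MgCl2, DTT / Controls: wells without proteasome as full block, compound-free enzyme plus substrate as uninhibited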
Beta2AR agonist: beta2AR agonists driving receptor internalization, primary screen, cell-based, FAP fluorogen, flow cytometry; Beta-2 adrenergic receptor (Homo sapiens), P07550; Am2.2-beta2AR cells; reference of the scale not given here; response, % (no concentration beside the values); hit rate 0.43% among 340,000;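 active = response above a set limit, near 3 SD of response in nonfluorescent compounds, cut at about 42% in these data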;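 also: stock transfer was 100 nL into about 11 µL; a reference agonist was the positive control; negative values mostly stem from fluorescent compounds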
Target sequence (P07550 whole entry, looked up): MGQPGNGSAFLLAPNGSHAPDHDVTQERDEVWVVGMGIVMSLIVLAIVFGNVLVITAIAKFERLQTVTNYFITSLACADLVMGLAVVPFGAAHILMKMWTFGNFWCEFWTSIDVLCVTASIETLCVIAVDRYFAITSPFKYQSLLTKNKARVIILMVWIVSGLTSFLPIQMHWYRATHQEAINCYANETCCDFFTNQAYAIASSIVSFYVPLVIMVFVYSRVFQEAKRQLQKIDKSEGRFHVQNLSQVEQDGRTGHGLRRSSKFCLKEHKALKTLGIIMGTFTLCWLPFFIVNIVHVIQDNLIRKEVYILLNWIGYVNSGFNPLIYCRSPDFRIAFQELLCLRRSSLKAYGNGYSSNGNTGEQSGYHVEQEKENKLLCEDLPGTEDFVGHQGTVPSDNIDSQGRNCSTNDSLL
HNF4A DNA FP: change in binding of human HNF4A to DNA, primary screen, biochemical, fluorescence polarization, FITC-DNA; Hepatocyte nuclear factor 4-alpha (Homo sapiens), P41235; 1 h; activity change, % at 10 µM; hit rate 0.3% among 360,000; in the data active = activity change above about 30%, passing the limit was not always enough;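 also: controls were the assay level and a saturating level of protein; the project sought stronger binding though the title names inhibitors; some compounds called inactive have numbers as strong as hits; positive values seem to mean higher polarization but the record does not say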
The depositor's hits bear a star; ? = inconclusive; nt = no result given.

SMILES | Vif TR-FRET | Bfl-1 A1 inh | E coli growth | LANA-H2A inh | UCH37 inh | Beta2AR agonist | HNF4A DNA FP
COc1ccc(Nc2cc(C(=O)NCCCN3CCN(C)CC3)c3ccccc3n2)c(OC)c1 | 16% | 0.1 | 0.64 | 1.0 | 3.8 | 2 | 3.0
COC(=O)CN1C(=O)N/C(=C/c2cc(OC)c(OC)cc2C)C1=O | ? | -0.5 | 0.65 | 8.7 | 11 | -5 | 2.4
COCCN1C2=C(C(=O)CC(C)(C)C2)C(c2ccc(OC)c(OC)c2)C2=C1CC(C)(C)CC2=O | nt | 0.2 | 0.64 | -2.2 | -5.7 | -1 | -1.0
CCOc1ccc(C(=O)NC(=S)Nc2ccc(NC(=O)c3ccco3)cc2)cc1[N+](=O)[O-] | nt | -0.6 | 0.66 | -1.3 | 8.7 | -7 | -1.3
COc1ccc(-c2nnc(NC(=O)c3ccc(S(=O)(=O)N4CCCc5ccccc54)cc3)o2)cc1 | -13% | -0.1 | 0.77 | 2.8 | -27 | -2 | -1.2
CCOC(=O)c1cnc(-n2nc(C)cc2C)nc1Nc1cccc(C(=O)O)c1 | 7% | -0.1 | 0.69 | 1.9 | 4.1 | -20 | 8.8
O=C(NC1=NCCS1)c1ccc(Cl)s1 | 2% | -1.0 | 0.6 | -1.6 | 2.8 | -6 | -1.6
COC(=O)c1ccccc1NC(=O)CN1CCCCC1 | nt | -0.2 | 0.71 | -4.6 | 4.1 | 4 | 0.7
CN1CCC(OC(=O)c2cc3cc(Br)ccc3oc2=O)CC1 | 2% | 1.3 | nt | -0.9 | nt | -10 | 3.7
CCOc1nc(OCC)nc(N2CCC(C)CC2)n1 | 30% | -0.1 | 0.74 | -1.6 | 3.6 | -12 | 3.1
O=C(N/N=C/c1ccc2cccc(OCc3ccccc3)c2n1)c1ccc(Cl)cc1 | -7% | -1.1 | nt | 4.4 | nt | 5 | -0.8
Clc1cccc(N2CCN(CCCN3CCN(c4ccccc4)CC3)CC2)c1 | -2% | nt | 0.63 | nt | 2.0 | -9 | -2.8
NC1=NC[C@@H](CC2CCCCC2)N1CCc1cc(C(F)(F)F)cc(C(F)(F)F)c1 | 3% | 1.3 | 0.062* | -343 | 5.8 | 3 | 8.7
Cc1cnc(C(=O)OCC(=O)Nc2oc(-c3ccccc3)c(-c3ccccc3)c2C#N)cn1 | 5% | 0.3 | 0.7 | -3.1 | -1.7 | 5 | 0.3
CCOC(=O)[C@H]1O[C@@H]1C(=O)N[C@@H](CC(C)C)C(=O)NCCC(C)C | -11% | -0.1 | nt | -9.6 | 0.3 | 13 | 3.9
CC(=O)c1ccc(NC(=O)/C(=C\c2ccccc2)NC(=O)/C=C/c2ccccc2)cc1 | -6% | 0.4 | 0.74 | 6.9 | 1.4 | 0 | -4.9
CCCC(=O)Nc1ccc(C(=O)Nc2nnc(COC)s2)cc1 | -1% | -0.3 | 0.65 | -4.9 | 4.7 | -4 | -1.3
C(=NCCCN1CCOCC1)c1ccc2c(c1)OCO2 | 0% | -0.7 | 0.75 | -1.6 | -1.5 | -5 | 0.3
NC(=O)NN=C(C1CC1)C1CC1 | 5% | nt | 0.69 | nt | 0.6 | -6 | -3.1
CC1(C)O[C@@H]2[C@H](O1)[C@@H](COS(=O)(=O)O)O[C@H]2n1ccc(=O)[nH]c1=O | nt | -0.4 | nt | -0.9 | 0.0 | -3 | 3.0
COC(=O)c1sccc1N/C=C(\C#N)S(=O)(=O)C(C)(C)C | 4% | 2.0 | 0.67 | 0.5 | 9.3 | -3 | 2.3
O=C(Nc1ccccc1)N(C1=NCCC1)c1ccc(OC(F)F)cc1 | -10% | 0.4 | 0.72 | -2.8 | 0.1 | -6 | 0.9
Cc1cc(Br)ccc1OCCCCN1CCC(C)CC1 | -2% | 0.6 | 0.66 | 5.0 | 1.8 | 9 | -0.2
Cc1cc(C)c(NC(=O)CSc2nnc(CNC(=O)c3c(F)cccc3Cl)o2)c(C)c1 | nt | -1.1 | 0.66 | -1.6 | 3.6 | -5 | -0.2
Cc1ccc(CNC(=O)N2CCN(C)CC2)cc1 | 28% | -0.8 | 0.69 | 2.3 | 0.8 | -3 | 0.4

Additional records
SMILES | Vif TR-FRET | Bfl-1 A1 inh | E coli growth | LANA-H2A inh | UCH37 inh | Beta2AR agonist | HNF4A DNA FP
O=C(OC1CCOC1=O)c1cc(-c2ccc(Cl)cc2)nc2ccccc12 (stereo not drawn) | -1% | -2.9 | 0.67 | 1.6 | -46 | 6 | -0.4
CCOC(=O)c1cc(NC(=O)CNCC(c2ccccc2)N(C)C)cc(C(=O)OCC)c1 (stereo not drawn) | -3% | -0.2 | 0.7 | -3.9 | -2.2 | -15 | 5.8
Cn1c(CN2CCOCC2)nnc1SCc1ccc(C#N)cc1 | 2% | 0.2 | 0.65 | 4.3 | 3.0 | 4 | 3.8
COc1cc2[nH]c(O)c(C=O)c2cc1OC | 11% | nt | 0.66 | nt | 4.1 | -3 | -0.9
CC1(C)Cc2c(sc(NC(=O)C(=O)NCC3CCCO3)c2C(N)=O)CO1 (stereo not drawn) | nt | 0.7 | 0.67 | 0.4 | 6.1 | 0 | 6.6
CCOc1ccc(N2C(=O)/C(=C/c3ccccn3)SC2=S)cc1 | nt | 0.1 | 0.69 | -0.4 | 5.5 | nt | nt
CC(C)C(OC(=O)C1CCCO1)C(=O)NC1CCCC1 (stereo not drawn) | 32% | -0.2 | 0.71 | -6.7 | 2.7 | 4 | 3.1
CCCCOC(=O)C1[C@H]2C(=O)N(CCc3ccccc3)C[C@]23C=C[C@H]1O3 (stereo partly drawn) | 2% | 0.8 | 0.68 | 1.6 | 3.0 | 1 | -1.1
CN1CCN(CC(=O)Nc2cccc(S(=O)(=O)N(C)c3ccccc3)c2)CC1 | 0% | 0.0 | 0.69 | 0.2 | 5.0 | 6 | 1.1
CCN(CC)CCN(C)C(=O)c1ccc(OC2CCN(C(=O)C3CC3)CC2)cc1 | 6% | -1.1 | 0.69 | 5.7 | 1.0 | 1 | -0.5
CN(C)CCNC(=O)C(=O)NCC1OCCN1S(=O)(=O)c1ccc([N+](=O)[O-])cc1 (stereo not drawn) | ? | 0.0 | 0.68 | 3.5 | 5.6 | 11 | 0.7
O=C(OCn1ncc(Br)c(Br)c1=O)c1ccc(F)cc1 | 68% | 1.0 | 0.65 | -2.8 | 3.9 | 78* | 1.5
O=C1C(C=Nc2ccc(F)cc2)=C(O)c2ccccc21 | -3% | 0.0 | 0.69 | -1.7 | 4.9 | -9 | -1.8
CCc1nnc(NC(=O)CSc2nnc(C)n2-c2ccc(C)cc2)s1 | 14% | 0.1 | 0.75 | 3.6 | -0.3 | 1 | 1.0
COc1ccc(OC)c(/C=N/NC(=O)CCc2c(C)n[nH]c2C)c1 | -5% | 0.3 | nt | -0.7 | nt | 0 | 2.3
CCc1cc2c(-c3ccccc3)cc(=O)oc2cc1OC(C)C(=O)O (stereo not drawn) | nt | -1.0 | 0.7 | 2.9 | -22 | 6 | -3.4
Cc1cc(C(=O)OCC(=O)Nc2ccccc2C(F)(F)F)on1 | 7% | -0.2 | 0.68 | -2.4 | -0.1 | 2 | -2.3
Cn1c2c(c(=O)n3ncnc13)CCCC2 | nt | 0.4 | 0.65 | -8.1 | 4.1 | -7 | 0.8
COc1ccc(-n2nc3c(N4CCC(C(=O)NCc5cccc(C)c5)CC4)nnc(C)c3c2C)cc1 | nt | -0.6 | 0.65 | -7.2 | -56 | 92* | 9.6
CC1CCCCN1CCNC(=O)c1ccc2c(c1)N(Cc1ccccc1)C(=O)c1ccccc1S2(=O)=O (stereo not drawn) | nt | nt | 0.66 | nt | 5.9 | 12 | 0.1
COc1ccc(C2CC(c3cccs3)=NN2C(=O)COC(=O)c2cncc(Br)c2)cc1OC (stereo not drawn) | -11% | -0.1 | 0.7 | -5.8 | -1.5 | -2 | 4.1
Cc1cc(/C=N/NC(=O)c2cccc([N+](=O)[O-])c2)c(C)n1-c1ccc(Cl)cc1Cl | 5% | 1.8 | nt | -0.5 | nt | -6 | -3.0
CN(C)C(CNC(=O)c1cc(S(=O)(=O)N(C)c2ccccc2)ccc1Cl)c1cccs1 (stereo not drawn) | ? | 1.3 | 0.72 | 4.7 | 3.2 | -4 | 0.3
O=C(COC(=O)c1ccc(S(=O)(=O)N2CCCC2)cc1)Nc1ccc(F)cc1F | -1% | 0.9 | 0.68 | 3.4 | 0.8 | 4 | -3.7
COc1ccc(-c2csc3nc(-c4ccccc4)oc(=O)c23)cc1OC | -112% | -0.1 | 0.69 | -3.4 | -57 | -3 | 7.8

A few values from the results shown.
CC(C)C(OC(=O)C1CCCO1)C(=O)NC1CCCC1 (stereo not drawn) | E coli growth: 0.71
CN(C)C(CNC(=O)c1cc(S(=O)(=O)N(C)c2ccccc2)ccc1Cl)c1cccs1 (stereo not drawn) | Bfl-1 A1 inh: 1.3

Continuation:
SMILES | Vif TR-FRET | Bfl-1 A1 inh | E coli growth | LANA-H2A inh | UCH37 inh | Beta2AR agonist | HNF4A DNA FP
COc1cc(C(=S)N2CCOCC2)ccc1OC(=O)c1ccccc1C | nt | -0.5 | 0.6 | -1.2 | 4.2 | 4 | 2.7
CCCn1c(CN2CCN(C(=O)c3ccco3)CC2)nc2cc(S(=O)(=O)N(C)C)ccc21 | 10% | nt | 0.6 | nt | -15 | -1 | -0.7
COc1cc(OC)cc(-c2cc(N3C(=O)Nc4ccccc4N3O)n[nH]2)c1 | 2% | 1.2 | nt | 6.2 | nt | 3 | -1.4
CCC(C)C(NC(=O)/C(=C\c1ccccc1)NC(=O)c1ccc(OC)cc1)C(=O)O (stereo not drawn) | -3% | -0.5 | nt | 2.4 | 4.3 | -3 | -4.2
O=C(CSc1nc2ccccc2s1)NNC(=S)Nc1ccccc1 | 7% | 0.5 | 0.68 | 4.3 | 3.4 | 0 | -3.4
CCOc1ccc(OCCCC(=O)NC2=NCCS2)cc1 | -2% | -0.2 | 0.66 | -0.2 | 0.5 | -2 | 4.5
COc1ccc(NC(=O)/C(Cl)=C(/Cl)S(=O)Cc2ccccc2Cl)cn1 (stereo not drawn) | 7% | nt | 0.7 | nt | 3.4 | 58* | nt
COc1ccc(N2CCN(c3ncnc4sc(C(=O)NCC5CCCO5)c(C)c34)CC2)cc1 (stereo not drawn) | 9% | -0.5 | 0.67 | 0.0 | 8.5 | 2 | 0.5
O=C(COc1ccc(C(=O)c2ccc(F)cc2)cc1)Nc1cccc(S(=O)(=O)N2CCOCC2)c1 | -5% | -0.8 | 0.71 | 3.1 | 4.6 | -3 | -0.2
Cc1cc(N/C(=N/S(=O)(=O)c2cc(F)ccc2F)c2ccccc2)n(-c2ccccc2)n1 | nt | 0.5 | 0.67 | 1.0 | 1.7 | -31 | 10.0
Cn1nc(C(C)(C)C)c(NC(=O)c2cccs2)c1C(C)(C)C | 4% | 0.1 | 0.7 | -7.1 | 4.9 | -1 | 2.6

Another view of part of the listing above.
Compound,Vif TR-FRET,Bfl-1 A1 inh,E coli growth,LANA-H2A inh,UCH37 inh,Beta2AR agonist,HNF4A DNA FP
O=C(CSc1nc2ccccc2s1)NNC(=S)Nc1ccccc1,7%,0.5,0.68,4.3,3.4,0,-3.4
CCOc1ccc(OCCCC(=O)NC2=NCCS2)cc1,-2%,-0.2,0.66,-0.2,0.5,-2,4.5
